Screening data as filed in PubChem.
B2AR ag: human beta-2 adrenergic receptor agonism by FAP | 0.43% of 340,000 active | response, % (test concentration not listed) | P07550 | Am2.2-beta2AR cells, FAP receptor internalization, flow cytometry; reference of the scale not given here;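 active = response above a set limit, near 3 SD of response in nonfluorescent compounds, cut at about 42% in these data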;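 note: stock transfer was 100 nL into about 11 µL; a reference agonist was the positive control; negative values mostly stem from fluorescent compounds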
UCH37 DUB inh: inhibitors of human deubiquitinating enzyme UCH37; Q9Y5K5; purified proteasome/UCH37, Ub-AMC cleavage fluorescence; inhibition, % (test concentration not listed); 0.33% of 330,000 active; AID 588478;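 active = mean of two replicates above 20%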;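 note: 0% = compound-free wells with enzyme and 100% = wells lacking proteasome; stock transfer was 100 nL into about 20 µL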
Target sequence (Q9Y5K5 whole entry, looked up): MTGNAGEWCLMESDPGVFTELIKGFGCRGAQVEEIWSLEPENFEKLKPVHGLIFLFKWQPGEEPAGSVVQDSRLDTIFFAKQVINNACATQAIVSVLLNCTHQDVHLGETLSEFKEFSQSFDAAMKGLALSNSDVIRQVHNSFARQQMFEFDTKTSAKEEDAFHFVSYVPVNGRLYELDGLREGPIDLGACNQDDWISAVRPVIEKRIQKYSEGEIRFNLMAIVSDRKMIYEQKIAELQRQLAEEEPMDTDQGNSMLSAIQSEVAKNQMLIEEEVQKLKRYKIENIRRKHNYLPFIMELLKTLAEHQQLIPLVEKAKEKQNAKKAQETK
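Material: Human UCH37 enzyme supplied as purified proteasome complex | Schedule: 30 min compound-proteasome preincubation then 25 min substrate reaction, room temperature | Detection: AMC fluorescence from Ub-AMC cleavage, excitation 355 nm, emission 460 nm | Benchmarks: Wells without proteasome as full block, compound-free enzyme plus substrate as uninhibited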
Vif TR-FRET: inhibitors of Vif binding to APOBEC3G peptide, primary screen, biochemical, TR-FRET, GST-Vif 1-94, biotin-A3G peptide, dose response retest (AID 1117319); TR-FRET GST-Vif / biotin-A3G peptide binding; higher % means a stronger effect; test concentration not given here; strong numbers were not always called active; one-dose inhibition, %; IC50 in µM for titrated hits; 0.57% of 260,000 active;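 active = above the screen mean plus three standard deviations and confirmed in dose response; inconclusive = results disagree or hit not tested in dose response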;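 note: Vif residues 1-94 fused to GST binding biotinylated APOBEC3G peptide 110-148; 0% = full assay without inhibitor and 100% = GST in place of GST-Vif; retest series ran down from 100 µM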
A1 inh: inhibitors of the anti-apoptotic protein A1, read as caspase activation | MEF A1-2A-BIM cells, Caspase-Glo 3/7 luminescence, 3 h; percent of clofoctol response, vehicle zero | caspase activation, % (test concentration not listed) | 0.066% of 330,000 active | AID 2462;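 active = over half of replicate activation scores above 10%, or exactly half above 10 with the replicate mean above 10; inconclusive = replicate mean below 10 yet half the replicates above 10; inactive = over half of replicates below 10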;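 note: wells of about 30 µL received 50 nL stock; many hits fall short of the cut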
Ecoli growth: blocks Escherichia coli growth; OD600 absorbance (concentration not given with the values); AID 1053175; OD600, 23 h; active compounds read low; 0.21% of 330,000 active;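 active = OD600 absorbance below the run mean of sample wells minus 3.6 SD, in any replicate, cut at about 0.56 in these data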;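 note: stock transfer was 300 nL into about 60 µL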
HNF4A DNA FP: change in binding of human HNF4 alpha to DNA | P41235 | HNF4a-FITC DNA binding, fluorescence polarization, 1 h | activity change, % at 10 µM | 0.3% of 360,000 active; in the data active = activity change above about 30%, passing the limit was not always enough;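 note: controls were the assay level and a saturating level of protein; the project sought stronger binding though the title names inhibitors; some compounds called inactive have numbers as strong as hits; positive values seem to mean higher polarization but the record does not say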
Target sequence (P41235 whole entry, looked up): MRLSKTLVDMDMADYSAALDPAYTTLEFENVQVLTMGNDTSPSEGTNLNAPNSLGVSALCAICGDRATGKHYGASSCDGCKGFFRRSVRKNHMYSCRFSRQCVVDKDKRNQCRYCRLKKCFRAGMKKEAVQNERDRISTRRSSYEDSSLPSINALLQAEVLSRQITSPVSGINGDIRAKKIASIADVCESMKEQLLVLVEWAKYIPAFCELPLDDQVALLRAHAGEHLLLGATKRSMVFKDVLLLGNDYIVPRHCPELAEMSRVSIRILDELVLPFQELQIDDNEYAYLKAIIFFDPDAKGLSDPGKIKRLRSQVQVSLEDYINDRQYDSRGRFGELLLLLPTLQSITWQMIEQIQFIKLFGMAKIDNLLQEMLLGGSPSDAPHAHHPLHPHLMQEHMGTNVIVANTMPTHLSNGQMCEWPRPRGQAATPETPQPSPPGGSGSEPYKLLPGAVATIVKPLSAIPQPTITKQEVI
LANA-H2A inh: blocks KSHV LANA binding to histone H2A/H2B. Q9QR71. cell-free LANA-H2A/H2B peptide, fluorescence polarization. inhibition, % (test concentration not listed). 0.6% of 320,000 active. AID 2629; in the data active = inhibition mostly above about 10%, no sharp cut-off; inactive = mostly below about 6.7%;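 note: stock transfer was 7.5 nL into about 10 µL; 0% = median of vehicle wells and 100% = median of positive control wells; one replicate is shown; the record names a cut of 25% in any replicate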
An asterisk follows results filed as active; i = inactive; ? = inconclusive; / = not tested or not shown.

SMILES	B2AR ag	UCH37 DUB inh	Vif TR-FRET	A1 inh	Ecoli growth	HNF4A DNA FP	LANA-H2A inh
Cc1ccc(NC(=O)CN(C)C(=O)c2cccc(-n3cccc3)c2)cc1	-4.4	2.7	4.56µM*	/	0.673	-39.4	/
COc1ccc(C(=O)NCCCOc2cccc(NC(C)=O)c2)cc1	8.2	5.9	/	0.9	0.695	-2.8	1.4
Cc1onc(-c2ccccc2Cl)c1C(=O)OCC(=O)N1CCCc2ccccc21	4.3	4.6	3.6%	-0.8	0.721	3.0	-3.4
O=C1Nc2ccc(Cl)cc2/C1=C/C1CC=CCC1 (stereo not drawn)	24.3	-1.2	25.4%	-0.6	0.718	-3.6	-1.1
COc1ccc(CNC(=O)COC(=O)CCOc2ccccc2)cc1	5.8	4.5	-2.2%	1.4	0.655	-2.3	-2.2
COc1ccc(CCn2c(SCC(=O)Nc3cc(C)on3)nc3ccsc3c2=O)cc1OC	-12.2	2.9	0.8%	-1.2	0.669	2.1	-1.9
CCOC(=O)C1CCN(C2=NC(=O)/C(=C/c3ccc(Cl)cc3)S2)CC1	-1.8	1.5	-4.5%	0.4	0.685	0.1	2.6
COc1ccccc1-c1cc(C(=O)N2CCCc3ccccc32)no1	-1.6	3.1	5.3%	0.1	0.655	-6.2	-3.9
O=C1NN(c2ccccc2)C(=O)/C1=C/c1ccc(Sc2cccc3ccccc23)o1	7.9	7.5	?	0.9	0.646	-6.5	-2.5
O=C(CCC(=O)c1cccs1)NCC(=O)Nc1ccc(F)c(F)c1F	-5.4	4.3	?	?	0.721	4.5	4.7
CC(=O)c1nnn(-c2nc(N3CCCC3)nc(N(c3ccccc3)c3ccccc3)n2)c1C	-2.1	0.8	4.5%	-0.6	0.71	2.5	-5.7
CCC1(CC)Cc2ccccc2C(C2=C(O)CC(C)(C)CC2=O)=N1	1.4	3.4	-0.5%	1.4	0.629	1.4	-0.2
Cc1nc2c(-c3ccc(F)cc3)cnn2c(N)c1-c1ccccc1	0.9	-99.3	/	-0.8	0.675	14.2	-3.1
Cc1cccc(-n2nnnc2SCC(=O)Nc2ccc(N3CCN(C)CC3)cc2)c1	0.6	4.0	/	0.3	0.656	1.8	0.2
CCc1ccc(C(c2c(C)nn(-c3ccccc3)c2N)c2c(C)nn(-c3ccccc3)c2N)cc1	-3.2	0.0	/	0.0	0.673	1.5	/
CSCCC(NC(=O)COc1ccccc1)C(=O)N(C)CC(=O)Nc1ccc(Cl)cc1 (stereo not drawn)	-7.1	1.8	0.7%	0.5	0.709	4.7	1.5
COC(=O)[C@@H]1Cc2c([nH]c3ccccc23)C(C)N1C(=O)c1ccccc1 (stereo partly drawn)	1.4	0.9	4.7%	-0.2	0.682	-1.6	-7.2
CC(C)(C)NC(=O)CN1CCC(NC(=O)C23CC4CC(CC(C4)C2)C3)CC1	-3.0	-0.9	/	1.2	0.636	-2.8	-3.9
Cn1c(CC(=O)Nc2ccccc2)nnc1SCC(=O)NC1CCCC1	2.5	-2.5	/	0.9	0.638	-0.2	-1.8
Cc1ccc(-c2nnc(SCC(=O)N/N=C/c3ccccc3C(=O)O)n2-c2ccc(Cl)cc2)cc1	10.2	/	24.2%	0.4	/	-2.1	-3.6
NC(=O)c1nccc2ccccc12	-4.6	/	-3.5%	/	/	6.0	/
COc1ccc(Cl)cc1S(=O)(=O)NCc1ccncc1	-8.4	-1.1	/	-0.5	0.647	2.1	5.7
CCCC(=O)c1cc2c(cc1NC(=O)c1ccccc1F)OCCO2	-5.7	-9.3	-3.9%	-1.1	0.713	-4.0	1.0
Cc1nnc(C)n1/N=C/c1ccc(O)cc1	-8.2	/	1.0%	0.4	/	-1.5	4.8
Cc1cc(-c2ccccc2)nc(N(C)C)c1S(C)(=O)=O	-2.4	2.1	-0.1%	-0.2	0.67	1.5	0.9

Vif TR-FRET, hit marks shown above
Molecule,B2AR ag,UCH37 DUB inh,Vif TR-FRET,Ecoli growth,HNF4A DNA FP,LANA-H2A inh
Cc1ccc(NC(=O)CN(C)C(=O)c2cccc(-n3cccc3)c2)cc1,-4.4,2.7,4.56µM*,0.673,-39.4,/

As entered above:
A1 inh with `COc1ccc(CNC(=O)COC(=O)CCOc2ccccc2)cc1` = 1.4
UCH37 DUB inh with `Cn1c(CC(=O)Nc2ccccc2)nnc1SCC(=O)NC1CCCC1` = -2.5
HNF4A DNA FP with `CC(C)(C)NC(=O)CN1CCC(NC(=O)C23CC4CC(CC(C4)C2)C3)CC1` = -2.8
LANA-H2A inh with `COc1ccc(Cl)cc1S(=O)(=O)NCc1ccncc1` = 5.7

(continued)
SMILES	B2AR ag	UCH37 DUB inh	Vif TR-FRET	A1 inh	Ecoli growth	HNF4A DNA FP	LANA-H2A inh
C=CCNC(=O)/C(C#N)=C/c1ccc(SC)cc1	4.5	-0.5	5.3%	0.0	0.678	-2.4	-8.5
COC(=O)/C=C/CC(C)OS(N)(=O)=O (stereo not drawn)	2.9	0.4	/	1.8	/	3.4	2.4
COc1ccc(C)cc1NC(=O)CSc1nnnn1C1CCCC1	-6.7	/	-5.9%	0.5	/	1.4	0.7
CCOc1cc(S(=O)(=O)NCCc2ccccc2C)c(OCC)cc1-n1cnnn1	-19.5	-56.9	-2.4%	0.2	0.652	0.8	-6.0
CS(=O)(=O)c1ccc2nc(NC(=O)Nc3ccc(Cl)c(Cl)c3)sc2c1	5.2	2.5	-3.3%	1.1	0.698	0.9	0.3
O=C(O)c1ccccc1Sc1ncnc2sc3c(c12)CCC3	-2.4	1.7	-20.8%	-0.4	0.723	1.9	4.2
COc1ccccc1NS(=O)(=O)N(C)C	-1.1	-3.5	6.0%	0.1	0.721	-6.9	8.0
CCCCc1nc2ccccc2c(NC(=O)CN2CCN(C)CC2)c1CCC	-9.2	7.2	7.5%	0.3	0.651	1.2	6.9
CCOc1ccc(/C=C\c2nc(O)c([N+](=O)[O-])c(=O)[nH]2)cc1OCC	-1.8	6.6	-0.8%	0.5	0.663	-0.5	-4.5
O=C(COC(=O)C1=COCCO1)Nc1ccc(OC(F)F)cc1	5.3	1.8	-1.2%	-0.1	0.681	-2.5	-1.2
Cc1cc(F)ccc1S(=O)(=O)N1CCCOC1CNC(=O)C(=O)NC1CC1 (stereo not drawn)	5.0	0.2	-3.8%	0.3	0.657	2.2	-2.5
COc1ccc(OCc2cc(C(=O)NCC(C)Oc3cccnc3)no2)c(Cl)c1 (stereo not drawn)	-2.9	5.0	?	-0.6	0.696	-5.5	3.3
COc1ccccc1CNC(=O)CCN1C(=O)COc2ccccc21	3.4	0.2	-3.0%	0.3	0.706	0.0	7.4
OCCNCCCOc1ccc(Cl)cc1Br	18.6	4.6	5.3%	-0.5	0.69	1.3	1.4
COc1ccc(S(=O)(=O)N2CCN(C(=O)CCOc3ccccc3)CC2)cc1OC	3.4	1.0	2.2%	-0.4	0.683	-1.8	-4.5
CN(CC(=O)Nc1ccccc1Cl)C(=O)CN1C(=O)NC(c2ccccc2)(c2ccccc2)C1=O	-1.1	1.0	/	-1.1	0.665	-3.1	2.8
COc1ccc(OC)c(CN2CCCC(C(=O)N3CCCCC3)C2)c1 (stereo not drawn)	2.3	-1.2	-1.7%	-0.2	0.729	1.4	0.2
CC(=O)/C(=N\Nc1cccc(Cl)c1)Sc1cccc2cccnc12	4.3	/	/	-0.4	/	-2.4	-3.6
CCCCc1ccc(NC(=S)NCc2ccc(OC)cc2)cc1	-17.1	1.4	-2.9%	0.4	0.698	1.2	1.2
CCc1ccc(C2=NN(C(=O)CCC(=O)O)C(c3cccs3)C2)cc1 (stereo not drawn)	6.6	-1.3	/	1.5	0.627	-1.5	1.4
Cc1ccccc1NC(=S)NCc1cccs1	0.4	/	-3.1%	0.7	0.717	-24.8	-6.3
CCOc1ccc(NC(=O)CC(=O)Nc2ccc(OCC)cc2)cc1	3.1	6.5	3.5%	0.1	0.684	1.1	-5.7
Cc1ccc(C(C2=C(O)CC(C)(C)CC2=O)C2C(=O)CC(C)(C)CC2=O)s1 (stereo not drawn)	21.0	-0.3	11.0%	-0.5	0.654	1.3	5.0
COc1ccc(OC)c(CNC(=O)C2CCC(=O)N2C(C)C)c1 (stereo not drawn)	-3.0	-0.2	2.2%	0.9	0.677	-2.5	-1.8
O=C(NC1CCCCCC1)C(=S)NCc1ccccc1	-8.1	1.6	12.3%	0.2	0.702	-3.8	0.3
Continuation:
SMILES	B2AR ag	UCH37 DUB inh	Vif TR-FRET	A1 inh	Ecoli growth	HNF4A DNA FP	LANA-H2A inh
CC1CCN(c2cc(N3CCC(C)CC3)c([N+](=O)[O-])cc2/C=C(\C#N)c2nn(-c3ccccc3)c(N)c2C#N)CC1	1.7	5.0	-4.8%	-0.8	0.748	2.6	10.4
Cc1ccc2nc(SCC(=O)c3ccccc3)nc(=O)n2c1	-0.4	7.6	3.0%	-3.0	0.673	0.4	-6.0
C/C(=N\Nc1ccc(C(=O)c2c(C)cc3ccccn23)cc1[N+](=O)[O-])c1ccc(O)cc1	2.9	/	2.4%	0.7	/	3.3	-0.9
CC(C(=O)N1CCc2ccccc21)N1CCN(Cc2ccc(Cl)cc2)CC1 (stereo not drawn)	6.9	2.0	/	0.4	0.661	0.0	-6.2
COc1ccc(-n2c(C)cc(C(=O)CN3CCC(C)CC3)c2C)cc1	-2.9	3.5	8.1%	-2.4	0.699	-3.7	-0.8
CC(=O)N1CC(C)Sc2ccc(S(=O)(=O)N3CCCCC3)cc21 (stereo not drawn)	8.4	1.7	/	0.5	0.638	1.1	3.0
O=C1COc2ccc(S(=O)(=O)N3CCCCCC3)cc2N1	3.3	2.8	/	-0.1	0.684	1.0	2.0
CC(OC(=O)c1cc[n+]([O-])cc1)C(=O)Nc1ccc(C(N)=O)cc1 (stereo not drawn)	2.1	4.2	-6.1%	-0.7	0.696	-2.1	1.8
Cc1nnc(SCC(=O)NCc2ccco2)n1Cc1ccccc1	0.8	-1.8	2.4%	0.0	0.745	-3.9	9.9
CCc1noc(C)c1C(=O)Nc1nc(-c2ccc(OC)cc2OC)cs1	12.9	1.2	-55.6%	0.3	0.648	3.7	-6.2
CN(C)S(=O)(=O)c1cccc(NC(=O)c2cc(-c3cccs3)nn2-c2cccc(Cl)c2)c1	-1.4	2.4	5.7%	-0.4	0.724	1.9	2.6
CC(=O)Nc1ccc(S(=O)(=O)Oc2ccc(/C=N/NC(=O)c3ccc(Cl)cc3)cc2)cc1	23.2	/	-0.6%	0.0	/	-0.8	6.7
COc1ccc2cc3cc(C(=O)NCc4ccco4)oc3nc2c1	2.8	i	28.2%	-2.6	0.739	3.7	4.6
COc1ccc(Cc2nn3c(-c4cc(OC)c(OC)c(OC)c4)nnc3s2)cc1	1.5	5.4	-0.7%	-0.7	0.702	-2.0	1.7
N#C/C(=C/c1cc[nH]c1)C(N)=S	12.1	6.5	1.6%	-0.8	0.695	4.8	8.7
Oc1ccc(C2Nc3cccc4cccc(c34)N2)c(O)c1	4.4	-10.4	17.5µM*	0.1	0.651	0.1	-0.7
CC(C)CCNC(=O)NC(=O)COc1c(F)c(F)cc(F)c1F	-3.8	3.9	11.4%	1.6	0.726	1.1	1.2
COc1ccccc1NS(=O)(=O)c1ccc(C)c(NS(=O)(=O)c2cc(NC(C)=O)ccc2OC)c1	-5.3	1.2	/	/	0.719	-0.7	/
COc1ccccc1-n1cnnc1SCC(=O)Nc1cccnc1Cl	3.6	1.9	19.6%	0.0	0.652	5.6	/
Cc1cccc(SCC(=O)Nc2ccccc2[N+](=O)[O-])c1	1.3	3.9	-5.6%	-1.0	0.721	4.8	7.8
Cc1nc(-c2ccc(Br)cc2)ccc1C(=O)O	-3.0	-0.9	4.4%	-5.1	/	-1.0	1.0
Cc1cc(C(=O)N2CCN(c3ccc([N+](=O)[O-])cc3)CC2)co1	9.7	10.6	8.4%	0.5	0.691	4.0	-0.1
